From PubChem
ClpP mod – qHTS Assay for Activators of ClpP; AID 651965, 2013; purified B. subtilis ClpP, FRET peptide cleavage, 20 min; 1.9% of 340,000 active; ATP-dependent Clp protease proteolytic subunit (Bacillus subtilis (strain 168)), P80244; Potency, µM (highest dose often 57.5 µM), for the others: at the top dose activity change, negative = active; active = well fitted falling curve with a large enough effect; inconclusive = small, poorly fitted or top-dose-only effect; inactive = no such curve, though single readings can be large or run the other way; also: potency is read from the fitted curve at half-maximal effect; the source files actives as falling curves though it sought activators and does not explain the sign; nearly all actives have a fitted effect of over 65% in size; many hits overshoot -100%
Target sequence (P80244 whole entry, looked up): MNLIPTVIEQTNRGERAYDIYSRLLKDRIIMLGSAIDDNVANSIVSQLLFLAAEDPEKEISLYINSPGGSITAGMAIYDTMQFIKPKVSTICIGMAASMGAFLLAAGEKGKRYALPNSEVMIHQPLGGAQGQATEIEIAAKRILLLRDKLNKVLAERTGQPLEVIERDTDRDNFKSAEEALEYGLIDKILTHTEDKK
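FRET quenching reversal measured ClpP activation: 10 microg/mL B. subtilis ClpP at pH 8 with the FRET-FV decapeptide, read at 430 nm after 320 nm excitation. The 20-min minus 0-min signal was scaled between DMSO/no-enzyme wells and ADEP (5.8 microM final).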
TRPML1 ag – human mucolipin-1 channel agonism | Q9GZU1 | TRPML1-expressing cells, Ca2+ dye fluorescence, FDSS; host cell line not named in the record; reference of the full effect not given here | activation, % (no concentration beside the values) | 0.12% of 410,000 active | AID 624414; in the data active = activation above about 50%; inconclusive = about 30% to 50%; inactive = below about 30%; also: 0% is about no effect; the text of the record puts the active cut at 80%
Target sequence (Q9GZU1 whole entry, looked up): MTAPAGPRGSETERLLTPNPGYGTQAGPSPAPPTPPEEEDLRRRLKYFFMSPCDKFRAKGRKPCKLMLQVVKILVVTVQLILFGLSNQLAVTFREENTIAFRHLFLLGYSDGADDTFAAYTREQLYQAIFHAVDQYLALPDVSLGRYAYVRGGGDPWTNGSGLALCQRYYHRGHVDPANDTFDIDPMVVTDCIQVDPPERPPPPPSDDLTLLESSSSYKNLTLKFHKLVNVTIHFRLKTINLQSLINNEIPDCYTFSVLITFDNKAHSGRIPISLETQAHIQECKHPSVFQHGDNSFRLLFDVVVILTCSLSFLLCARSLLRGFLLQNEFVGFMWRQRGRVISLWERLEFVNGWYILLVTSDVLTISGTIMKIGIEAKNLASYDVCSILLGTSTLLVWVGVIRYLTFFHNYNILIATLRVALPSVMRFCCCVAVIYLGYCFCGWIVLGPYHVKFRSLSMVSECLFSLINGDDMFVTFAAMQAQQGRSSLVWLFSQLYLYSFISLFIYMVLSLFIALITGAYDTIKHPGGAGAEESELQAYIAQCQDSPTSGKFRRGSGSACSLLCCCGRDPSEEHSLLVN
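TRPML1-DL cells, Tet-induced overnight (~16 h, 37 degrees C), loaded 45-90 min at room temperature with Ca8 no-wash calcium dye plus quencher. FDSS fluorescence: 10 s baseline, compound pin-transfer, 110 s agonist read, then EC80 54-4 (4uM final) and 110 s antagonist read.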
Starred values were filed as active, the others as inactive; ? = inconclusive. Some of the compounds tested, so the mix of outcomes need not match the whole.

SMILES	ClpP mod	TRPML1 ag
COc1ccc(C2=Nc3ccccc3NC(=O)C2N(Cc2ccccc2)C(=O)C2=NNC(=O)CC2)cc1 (stereo not given)	-7.2%	-0.6
Cc1ccc(F)cc1-c1cc(C(=O)NCc2cc(C(F)(F)F)cc(C(F)(F)F)c2)[nH]n1	4.3%	1.4
CC1(C(=O)NS(=O)(=O)c2cccc(C#N)c2)CCN1C(=O)CC1CC1 (stereo not given)	-0.3%	-0.2
Cc1ccccc1C(=O)N1CCC[C@H]1C(=O)N1CCC[C@H]1C(=O)NCc1ccccn1	0.2%	0.0
CC(C)N1CCC(C)(C(=O)Nc2cccc3c2CCCC3)C1 (stereo not given)	0.1%	-1.0
COc1cccc(CCN2C(=O)CCC3=C2CCC3=O)c1	0.3%	-0.5
COc1ccccc1CCC(=O)Nc1ccc2c(c1)c(=O)n(C)n2Cc1cccc(C(F)(F)F)c1	4.6%	5.0
O=CNc1cc(-c2ccc(C(=O)NC3CC3)cc2)cn2c(-c3ccc(F)c(Cl)c3)cnc12	-23.7%	-0.3
CC(C)NC(=O)C1(C)Cc2c(-c3cccc(C(N)=O)c3)ccnc2O1 (stereo not given)	-5.8%	0.1
C=Cc1ccc(Cn2c(C)c(C(=O)NCc3ccccc3C(F)(F)F)sc2=O)cc1	0.3%	-0.1
COc1cc2c(NC3CCN(C)CC3)nc(N3CCCN(C)CC3)nc2cc1OCCN(C)CCN(C)C	3.7%	-0.7
CCCCCc1ccc(-c2cn(Cc3ccc4c(c3)C(=O)c3ccccc3C4=O)nn2)cc1	0.3%	-0.4
COC(=O)[C@]12CCCCC=C1N(CCC1=CCCCC1)C(=O)[C@H](CC(=O)NCc1ccc(C)o1)C2	1.7%	0.7
O=C(C[N+]1(CCO)CCOCC1)c1ccc2ccccc2c1	-0.8%	0.5
CC1(C(=O)NS(=O)(=O)c2ccc(Br)cc2)CCN1C(=O)CC1CCCCC1 (stereo not given)	1.0%	0.8
CCCCn1nnnc1C(c1ccccc1)N1CCN(c2ccccc2)CC1 (stereo not given)	-0.7%	?
O=C(NCc1ccccc1)c1cc(C2COCCN2C(=O)c2cccs2)on1 (stereo not given)	1.4%	-0.2
COC(=O)[C@]12CCCCC=C1N(Cc1ccccc1)C(=O)[C@H](CC(=O)N1CCSCC1)C2	-2.3%	-0.6
CN(C)c1ccc(-c2[nH][nH]c(=O)c2NC(=O)c2ccccn2)cc1	-2.3%	-0.4
COc1ccccc1CNc1nc(NCCOc2ccccc2Cl)c2sccc2n1	?	-0.5

Full records as entered above.
CCCCn1nnnc1C(c1ccccc1)N1CCN(c2ccccc2)CC1 (stereo not given) is listed with ClpP mod: -0.7%; TRPML1 ag: ?
COC(=O)[C@]12CCCCC=C1N(Cc1ccccc1)C(=O)[C@H](CC(=O)N1CCSCC1)C2 is listed with ClpP mod: -2.3%; TRPML1 ag: -0.6

Additional structures.
SMILES	ClpP mod	TRPML1 ag
COC(=O)c1ccc(CN2C(=O)C(Cc3ccccc3)ON=C2c2ncccc2C)o1 (stereo not given)	-0.8%	-0.1
CC(=O)Nc1ccc(CNc2nc(NCC3CC3)nc3ccsc23)cc1	-21.2%	-0.7
CCOC(=O)C1(C)CCCCCN1C(=O)c1ccc(OC)c(C(F)(F)F)c1 (stereo not given)	-0.1%	-1.0
Cc1cc(I)ccc1Nc1nc(NCCN2CCOCC2)nc(N2CCOCC2)n1	0.2%	-0.1
COc1cc(N)ccc1Nc1c2ccccc2nc2ccccc12	4.5%	-1.2
COc1ccccc1OCCCN1CCC(C(O)(c2ccccc2)c2ccccc2)CC1	0.0%	6.4
CCN(c1ccccc1)C1SC(=O)N(c2ccccc2)C1=O (stereo not given)	-2.8%	-1.0
C1=Cc2ccccc2/C1=C/c1ccc(/C=C2\C=Cc3ccccc32)cc1	-0.6%	-0.2
Cc1cccc(C)c1NC(=O)C1c2ccccc2OCC(=O)N1Cc1ccco1 (stereo not given)	2.7%	-0.9
CC1CCC(NC(=O)c2[nH]c(C(F)(F)F)nc2-c2ccccc2)CC1 (stereo not given)	-1.9%	0.3

Given with two lines to a compound: 4 of the compounds above
Order of values – ClpP mod	TRPML1 ag
CC(C)NC(=O)C1(C)Cc2c(-c3cccc(C(N)=O)c3)ccnc2O1 (stereo not given)
→ -5.8%	0.1
C=Cc1ccc(Cn2c(C)c(C(=O)NCc3ccccc3C(F)(F)F)sc2=O)cc1
→ 0.3%	-0.1
COc1cc2c(NC3CCN(C)CC3)nc(N3CCCN(C)CC3)nc2cc1OCCN(C)CCN(C)C
→ 3.7%	-0.7
CCCCCc1ccc(-c2cn(Cc3ccc4c(c3)C(=O)c3ccccc3C4=O)nn2)cc1
→ 0.3%	-0.4

Following part
SMILES	ClpP mod	TRPML1 ag
CCOC(=O)C1(C)CCN1C(=O)c1cccc(OC(F)(F)F)c1 (stereo not given)	0.6%	-1.3
COc1ccc(CN2C[C@@H](CO)O[C@@H](n3cnc4c(NCc5ccc(F)cc5)ncnc43)C2)cc1	1.1%	-0.5
CCc1nc2c(OCCC3CCCCC3)cccn2c1N(C)C(=O)c1ccc(C)cc1	-4.5%	-0.5
CCCCCCn1cc(CN2CC(N3CCSCC3)CS2(=O)=O)nn1 (stereo not given)	-3.2%	-0.3
CC(C)(C)NC(=O)C1c2ccccc2OCC(=O)N1Cc1cccnc1 (stereo not given)	0.0%	0.2
CC(=O)c1ccc2c(c1)N(Cc1ccc3ccccc3c1)C(=O)C(C)S2 (stereo not given)	1.4%	4.6
CCN(CC)c1ccc(/C=C/c2ccncc2)cc1	-1.0%	28.0
CCCNC(=O)c1cc(C2CCCN(C(=O)c3ccc4ccccc4c3)C2)on1 (stereo not given)	0.1%	-1.0
COc1ccc(NC(=O)c2cc(C3CCCCN3C(=O)c3ccc(Cl)cc3)on2)c(C)c1 (stereo not given)	-2.0%	1.3
Cc1ccc2c(c1)CCCN2C(=O)c1cnn2c1NC(=C1CC1)C=C2C(F)F	-2.0%	-0.1
CN(C)c1ccc(/C=C/c2ccc3ncccc3c2)cc1	3.8%	0.0
OC(c1ccc(Cl)cc1)c1ncc(-c2ccccc2F)[nH]1 (stereo not given)	-0.2%	-0.2
CCOC(=O)[C@]12CCC=C1N(Cc1ccccc1)C(=O)[C@H](CC(=O)N1CCOCC1)C2	-0.2%	-0.5
COc1cc(OC)cc(-c2noc([C@H]3C[C@H](O)[C@@H](CO)O3)n2)c1	-5.4%	-0.1
COc1ccc(C(=O)C[n+]2ccccc2Cl)cc1	-20.9%	-0.8
CC1(C(=O)Nc2ccc3c(c2)OCO3)CCN1C(=O)c1ccco1 (stereo not given)	-2.0%	-0.2
Cc1[nH]c2ccccc2c1/C=C/c1c(C)[nH]c2ccccc12	17.2%	0.0
CCOc1ccc(NC(=O)c2nc(S(=O)(=O)Cc3ccc(C)cc3)ncc2Cl)cc1	2.1%	-0.1
O=C(NC(c1ccc2c(c1)OCO2)c1ccccn1)C1CCN(CCOc2ccc(Cl)cc2Cl)CC1 (stereo not given)	0.3%	-0.2
CCCCn1nnnc1C(c1ccccc1)N1CCN(c2ccc(F)cc2)CC1 (stereo not given)	0.1%	24.3
COc1ccc(F)cc1-c1cc(C(=O)NC2CCCCC2)[nH]n1	-1.2%	-1.1
CC1(C(=O)NS(=O)(=O)c2ccccc2)CCN1C(=O)C/C=C/c1ccccc1 (stereo not given)	-0.3%	-0.5
COc1ccccc1-c1csc(C(O)c2ccc(F)c(F)c2)n1 (stereo not given)	0.7%	2.0
CCCCNc1ncnc2oc(-c3ccco3)c(-c3ccco3)c12	4.3%	-1.2
O=C(NCCc1cccs1)Nc1ccc2nc([C@@H]3O[C@H](CO)[C@@H](O)[C@H]3O)[nH]c2c1	0.3%	-0.4
Cc1ccc(C(O)c2ncc(-c3cccc4ccccc34)[nH]2)cc1F (stereo not given)	4.6%	-0.8
COc1cc2c(NC3CCN(C)CC3)nc(N3CCCN(C)CC3)nc2cc1OCCN(C)C	4.3%	-0.2
NC(Cc1ccc(F)cc1)c1csc(Nc2nccc(C(F)(F)F)n2)n1 (stereo not given)	0.9%	0.8
Fc1ccc(-c2nc(-c3c[nH]c4ccccc34)cs2)cc1	?	-0.5
COc1ncc(-c2ccc(N3C(c4ccsc4)=Cc4ccccc4C3CC(C)=O)cc2)cn1 (stereo not given)	5.0%	0.1
CS(=O)(=O)N1CCCCC1c1cc(C(=O)Nc2ccc3c(c2)OCO3)no1 (stereo not given)	-1.8%	-0.1
COC(=O)[C@@]1(Sc2ccc(C)cc2)CC(=O)N[C@@H]1c1ccc(Br)cc1	1.3%	0.8
Cc1cc(C)[n+](C)c2ccccc12	4.3%	-0.3
CCCOc1ccc(F)cc1-c1cc(C(=O)NCc2ccco2)[nH]n1	-1.5%	-1.1
N#CCc1ccc(-c2cccc3nccn23)cc1	4.9%	-1.2
Cc1cc(C)cc(CC(=O)N2CCC2(C)C(=O)NS(=O)(=O)c2cccc(F)c2)c1 (stereo not given)	-1.1%	-0.3
COCCN1C(=O)COc2ccccc2C1C(=O)NCc1ccccc1 (stereo not given)	-0.2%	-0.3
O=C(NCc1cccc(Cl)c1)C1Cc2c(-c3ccccc3)ccnc2O1 (stereo not given)	-2.5%	-0.4
CC(O)(c1cccc(F)c1)c1nc(-c2ccc(S(C)(=O)=O)cc2)cs1 (stereo not given)	-3.2%	2.5
O=[N+]([O-])c1ccc(S(=O)(=O)N2CCN(c3nc(-c4cccs4)nc4ccccc34)CC2)cc1	-2.4%	-0.5
OC(c1cc(F)cc(Cl)c1)c1ncc(-c2ccc(Cl)cc2)[nH]1 (stereo not given)	-0.3%	14.5
O=C1NC[C@@H](CCCCN2C[C@H](Cc3ccccc3)N(CCC3CCCCC3)C(=O)C2=O)N(CCc2ccccc2)C1=O	2.4%	-0.3
CCOC(=O)N1CCN(C(c2ccnc3ccccc23)c2nnnn2-c2c(C)cccc2C)CC1 (stereo not given)	1.4%	1.2
CC(C)C[C@H]1CNC(=O)C(=O)N1C[C@@H]1CCCN1C[C@H](Cc1ccccc1)N1C[C@H](Cc2ccccc2)N(CCc2ccccc2)C(=O)C1=O	-0.3%	-0.7
CC1(C(=O)Nc2ccc3c(c2)OCO3)CCN1C(=O)CCc1ccc(Cl)cc1Cl (stereo not given)	0.7%	-0.6
C=CCNc1ncnc2c1ncn2[C@H]1CN(Cc2ccc(-c3ccccc3)cc2)C[C@@H](CO)O1	-0.7%	0.5
CCCCc1c(-c2ccc(OC)cc2)ncn1CCc1ccccc1OC	0.0%	0.0
Cn1cc(-c2csc(C(O)c3ccc(F)c(F)c3)n2)cn1 (stereo not given)	0.3%	-0.7
OC(c1cccc(CN2CCCCC2)c1)c1ncc(-c2cccc3ccccc23)[nH]1 (stereo not given)	4.0%	-0.3
Clc1ccc(-c2csc3ncnc(Sc4nnnn4C4CC4)c23)cc1	-7.6%	0.0

Additional structures.
SMILES	ClpP mod	TRPML1 ag
c1csc(CNc2nc(Oc3ccncc3)c3sccc3n2)c1	4.8%	-0.3
CCOC1=C2[C@@H](CN(S(=O)(=O)c3ccc(C)cc3)[C@H]2c2cccc3ccccc23)[C@H]2C(=O)N(C)C(=O)[C@H]2C1	-4.1%	-0.8
CC(C)C(=O)N1CCCC1(C)C(=O)Nc1ccc(-n2cncn2)cc1 (stereo not given)	2.0%	-0.2
CC(C)NC(=O)c1ccc(-c2ccc(F)c(F)c2)c2ccoc12	4.3%	-0.7
C/C=C/c1cccc(-c2nc(C(=O)NC3CCC3)cc3c2[C@H](CCO)N(S(=O)C(C)(C)C)C3)c1 (stereo not given in full)	-6.3%	-0.2
COc1ccc(Cc2c(-c3ccc(Cl)cc3)nc3c(C)cc(Br)cn23)c(C)c1	-5.7%	0.3
COc1ccc(NC(=O)C2(C)Cc3c(-c4ccc(C(N)=O)cc4)ccnc3O2)cc1 (stereo not given)	-2.2%	-0.5
Cc1ccc(C(=O)C[n+]2cccc3cccc(O)c32)cc1	-3.6%	6.4
OC(Cc1ccc2ccccc2n1)c1ccccc1 (stereo not given)	-0.8%	-0.6
CC(C)Nc1nc(NCc2ccccc2)c2sccc2n1	-20.8%	3.3
COc1ccc(-c2ccc3c(c2)c(Sc2ccccc2)c(-c2ccccc2)n3C)cn1	4.5%	0.3
COc1ccc(NC(=O)c2cc(C3CCCCN3C(=O)c3cc(F)ccc3C)on2)c(C)c1 (stereo not given)	1.1%	-0.6
CC1(C(=O)NS(=O)(=O)c2ccccc2C(F)(F)F)CCN1C(=O)COc1ccc(Cl)cc1 (stereo not given)	0.7%	-0.5
CC1(C(=O)NS(=O)(=O)C2CC2)CCN(C(=O)C2(c3ccc(Cl)cc3)CCCC2)C1 (stereo not given)	2.2%	-0.6
CCc1nc2c(OCc3ccc(F)c(F)c3)cccn2c1N(C)C(=O)c1cccs1	-0.2%	-0.5
